Source: PubChem BioAssay
AmpC inh no det: Promiscuous and Specific Inhibitors of AmpC Beta-Lactamase (assay without detergent); P00811; AmpC nitrocefin hydrolysis, absorbance 480 nm, no detergent; potencies from a single point are estimates; Potency, µM (doses to about 28.7 µM), for the others: top-dose activity change, negative = inhibition; hit rate 1.8% among 71,000; AID 585, 2007; active = falling curve, for most hits resting on a single point; inconclusive = weak or doubtful change; inactive = flat or rising curve; also: % of control where 0% means no effect; about half of the hits show no inhibition at the top dose; a quarter of the inactives give rising signals
Target sequence (P00811 whole entry, looked up): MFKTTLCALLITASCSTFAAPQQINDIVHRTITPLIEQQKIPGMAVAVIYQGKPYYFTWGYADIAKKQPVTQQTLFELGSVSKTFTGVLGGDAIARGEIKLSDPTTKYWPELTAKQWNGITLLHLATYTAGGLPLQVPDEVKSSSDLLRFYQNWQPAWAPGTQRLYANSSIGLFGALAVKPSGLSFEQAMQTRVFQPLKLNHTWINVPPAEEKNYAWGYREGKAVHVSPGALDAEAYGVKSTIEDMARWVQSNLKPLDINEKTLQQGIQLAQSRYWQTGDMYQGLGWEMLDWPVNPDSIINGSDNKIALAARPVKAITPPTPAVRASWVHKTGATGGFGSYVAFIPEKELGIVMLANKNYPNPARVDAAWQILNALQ
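AmpC in 20 mM phosphate buffer pH 7.0 was preincubated 15 min at room temperature with compounds. Nitrocefin (800 uM stock) was then added and hydrolysis followed at 480 nm every 20 s for 4 min.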
Starred values were filed as active, the others as inactive; ? = inconclusive; & = joins results of further samples; [ ] = remark or other dose. Potency is read from the fitted curve at half-maximal effect. Only part of the results is shown; the hit share may differ from the screen's.

SMILES	AmpC inh no det
CCCCOc1ccc(/C=c2\sc3ncnn3c2=O)cc1	-9.8%
COc1cc(Cl)c(S(=O)(=O)NCCCN2CCOCC2)cc1Cl	10.6%
CCOC(=O)c1c(C)[nH]c(C(=O)OCC(=O)N2c3ccccc3CC2C)c1C (stereo not drawn)	55.0%
Cc1nnc(NCCN2CCOCC2)[nH]c1=O	-4.0%
Cc1cc2n(n1)C(c1ccsc1)Nc1ccccc1-2 (stereo not drawn)	10.3%
c1cncc(CNc2ncn[nH]2)c1	1.6%[5.75 µM]
CC(=O)Nc1ccc(NC(=O)c2oc3cc(C)c(C)cc3c2C)cc1	53.1%
Cc1c(NC(=O)c2cnn3cccnc23)c(=O)n(-c2ccccc2)n1C	-3.9%
CCN(CC)C(=O)CSc1nc2ncccc2[nH]1	2.9%
Cc1nc2ccccc2c(=O)n1NC(=O)COc1ccccc1	-1.5%
CCOC(=O)C1CCCN(C(=O)Cc2c(C(=O)O)[nH]c3ccccc23)C1 (stereo not drawn)	-19.8%
Cc1ccc2nc(-c3ccccn3)oc2c1	0.5%
CC(=O)Nc1ccc(S(=O)(=O)N2CCCCC2c2cccnc2)cc1 (stereo not drawn)	-0.2%
CCCN(CCC)[C@H]1CCc2c(F)ccc(O)c2C1	2.4%&9.0%
COC(=O)C1CCCN1C(=O)C1CCCN1C(=O)CNC(=O)OCc1ccccc1 (stereo not drawn)	24.8%
CC(C)CCOc1ccc(C(=O)O)cc1	0.8%
COC(=O)CN(c1c(C)cccc1C)S(C)(=O)=O	2.4%
FC(F)(F)c1ccccc1Cl	-8.1%
O=C(CSc1nnnn1-c1ccc2c(c1)OCO2)NCc1ccccc1	-1.1%
O=C(O)/C=C(/C(=O)O)[C@]12CCN3CC4=CCO[C@@H]5CC(=O)N[C@@H]1[C@H]5[C@H]4C[C@H]32	0.6%[5.75 µM]

Random excerpt: 4 records from the list.
SMILES	AmpC inh no det
c1cncc(CNc2ncn[nH]2)c1	1.6%[5.75 µM]
CCCN(CCC)[C@H]1CCc2c(F)ccc(O)c2C1	2.4%&9.0%
CCOC(=O)C1CCCN(C(=O)Cc2c(C(=O)O)[nH]c3ccccc23)C1 (stereo not drawn)	-19.8%
Cc1nc2ccccc2c(=O)n1NC(=O)COc1ccccc1	-1.5%

Ordered by length of the SMILES (low to high): some entries from above.
SMILES	AmpC inh no det
FC(F)(F)c1ccccc1Cl	-8.1%
c1cncc(CNc2ncn[nH]2)c1	1.6%[5.75 µM]
Cc1ccc2nc(-c3ccccn3)oc2c1	0.5%
Cc1cc2n(n1)C(c1ccsc1)Nc1ccccc1-2 (stereo not drawn)	10.3%
COc1cc(Cl)c(S(=O)(=O)NCCCN2CCOCC2)cc1Cl	10.6%
O=C(O)/C=C(/C(=O)O)[C@]12CCN3CC4=CCO[C@@H]5CC(=O)N[C@@H]1[C@H]5[C@H]4C[C@H]32	0.6%[5.75 µM]

New compounds follow.
SMILES	AmpC inh no det
COc1ccccc1N1CCN(CC(O)c2ccc3cc[nH]c3c2)CC1 (stereo not drawn)	22.5%
COc1ccc2c(c1)-c1ccccc1S(=O)(=O)N2C(C)=O	?
COc1ccc(C(=O)Nc2cc(OC)cc(OC)c2)cc1	-14.1%
N[C@@H](CCCCP(=O)(O)O)C(=O)O	-8.1%
CCOC(=O)CSc1nccc(N(C)C)c1C#N	10.5%
COC(=O)c1cc(Br)c(=O)n(CCC2=CCCCC2)c1	-3.9%
CCn1cnc2sc(-c3ccccc3)cc2c1=O	17.8%
COc1ccc(CC(=O)N2CCCc3ccccc32)cc1OC	11.7%
CC(=O)Nc1cc(C(F)(F)F)ccc1N1CCOCC1	7.5%
COc1ccc(CCn2c(O)c(C=NCc3cccnc3)c(=O)[nH]c2=O)cc1OC	1.1%
Cn1c(C(=O)NCCCN2CCN(c3ccccc3F)CC2)cc2c(=O)n(C)c3ccccc3c21	101.2%
CCC(CC)C(=O)Nc1cccc(C(=O)Nc2ccc3c(c2)OCO3)c1	-10.9%
O=S(=O)(Nc1cccc(C(F)(F)F)c1)c1cnc[nH]1	-11.6%
COc1cccc(Oc2ccc(N)cc2)c1	5.5%
C=CC(=O)OCC(CC)CCCC (stereo not drawn)	0.9%
Cc1nn(C(=O)C(C)N2C(=O)c3ccccc3C2=O)c(C)c1Br (stereo not drawn)	1.3%
O=C(C1CC2CCC1C2)N1CCN(Cc2ccc3c(c2)OCO3)CC1 (stereo not drawn)	44.0%
ClC(Cl)Br	-0.8%
O=C1CC(C(=O)Nc2ccccc2)N=C(N2CCCCC2)N1 (stereo not drawn)	-5.2%
C(=N\n1cnnc1)/c1ccc(N2CCOCC2)cc1	0.5%
COCC(=O)Nc1ccccc1NC(C)=O	0.1%
OCCSc1nncn1/N=C/c1c[nH]c2ccccc12	-3.6%
Cc1ccc(N=Nc2c(O)ccc3cc(S(=O)(=O)O)ccc23)cc1	-1.2%[5.75 µM]
COc1ccccc1NC(=O)N1CCc2[nH]c3ccc(Cl)cc3c2C1	75.8%
CN1CCN(c2ccnc(-c3cccc(NS(C)(=O)=O)c3)n2)CC1	18.8%
Oc1ccc(-c2nc3cnccn3c2Nc2ccc3c(c2)OCCO3)cc1	0.3%
COc1ccc(OC)c(CN2CCN(C(=O)c3cccs3)CC2)c1	18.5%
Cc1ccc(OCC(O)CN2CCN(Cc3ccc4c(c3)OCO4)CC2)c(C)c1 (stereo not drawn)	92.3%
CSCCC(NC(=O)c1cc(CC(C)C)oc1C)C(=O)O (stereo not drawn)	-6.5%
Nc1c(C(=O)N2CCOCC2)sc(=S)n1-c1ccccc1	-7.8%
CCC(=O)c1c(O)n(C2CCCCCC2)c(=O)[nH]c1=O	-6.2%
Cc1cc(C(=O)NCCC2=CCCCC2)c(C)o1	-10.8%
Cn1c(NCc2ccco2)nc2c1c(=O)n(Cc1ccc(Cl)cc1Cl)c(=O)n2C	28.1%
Cc1cc2ccccc2n1CCNC(=O)C(C)C	21.5%
COc1ccc(-c2c3c(=O)n(C)c(=O)n(C)c3cn2C2CCCCC2)cc1	98.9%
NC[C@H]1O[C@@H](n2cnc3c(=O)[nH]c(N)nc32)[C@@H](O)[C@@H]1O	0.8%[5.75 µM]
Cn1c(=O)c(=O)n(C)c2cc(S(=O)(=O)NCCc3ccccc3)ccc21	-19.9%
CC(=O)Cc1nsc(NC(=O)c2ccc(COc3ccccc3)o2)n1	-0.5%
O=C(NCc1cccnc1)C1CC(=O)N(c2ccc(Cl)cc2)C1 (stereo not drawn)	0.9%
OC(COc1cccc(OCC(O)CN2CCOCC2)c1)CN1CCOCC1 (stereo not drawn)	-6.5%
COc1ccc(S(=O)(=O)N(C)CC(=O)NC2CCCC2)cc1Cl	7.5%
C#CC(C)(C)NC(=O)c1ccccc1OC	-7.2%
Cc1ccc(OCC(=O)Nc2cc(-c3nn4c(C)nnc4s3)ccc2C)cc1	30.6%
CN1CCCc2cc3c(C(F)(F)F)cc(=O)oc3nc21	0.2%
Cc1cc(C)nc(NC(=O)CN2C(=O)c3ccccc3C2=O)n1	-1.6%
COc1ccc(S(=O)(=O)Nc2ccc3c(c2)OCO3)cc1OC	-13.2%
CC(=O)N1CCN(C(=S)c2ccc(N(C)C)cc2)CC1	-0.3%
Cc1ccc(-c2csc3nnc(SCC(=O)Nc4nsc(-c5ccccc5)n4)n23)cc1	-3.2%
CN1C(=O)c2ccccc2C(C(=O)NCCCN2CCCC2)C1c1c[nH]c2ccccc12 (stereo not drawn)	6.9%
CSc1nc(-c2ccccc2)nc2[nH]ccc(=O)c12	-6.9%
O=C(O)Cn1cc(C(=O)C2CC2)c2ccccc21	49.6%
CC1(C)C(=O)Nc2ccccc2N1C(=O)COC(=O)Cn1cnc2ccccc2c1=O	14.3%
O=S(=O)(c1ccc2ccccc2c1)N1CCN(S(=O)(=O)c2ccc3ccccc3c2)CC1	-1.5%[5.75 µM]
CC1(C)Oc2ccc(C(=O)NC3CC3)cc2N(CC(=O)N2CCOCC2)C1=O	-6.6%
O=C(Cc1c(F)cccc1Cl)Nc1ccon1	-6.5%
COc1cccc(OCCn2ccnc2)c1	-0.6%
CC(C)COc1ccc(C(=O)NCc2ccco2)cc1	-5.7%
CCOC(=O)c1ccc2[nH]c(-c3ccc(S(=O)(=O)F)cc3)cc(=O)c2c1	-3.1%[5.75 µM]
CN(C)c1ccc(C2=NOC(CN3C(=O)c4ccccc4S3(=O)=O)C2)cc1 (stereo not drawn)	17.9%
CN1CCN(c2ncc3nc(-c4cn(C)c5ccccc45)c(=O)n(Cc4cccs4)c3n2)CC1	17.1%

(further entries)
SMILES	AmpC inh no det
O=C1CCC(=O)N1CN(C(=O)c1ccco1)c1ccccc1	-2.0%
CC(C)C(=O)Nc1ccc(Nc2ccccc2)cc1	-6.0%
CCN(CC)CCn1c(SCC(=O)NCc2ccco2)nc2c(sc3ccccc32)c1=O	40.3%
Cn1cccc1Cc1nnc(SCC(=O)N2CCCC2)n1CCc1ccccc1	94.5%
COc1ccc(NC(=O)c2cncc(Br)c2)c(S(=O)(=O)N2CCOCC2)c1	15.0%
CNC(=O)C1(C)C=CC2(CCCCC2)N1C(C)=O (stereo not drawn)	7.7%
CN(C)c1ccc(C(=S)NCc2ccco2)cc1	-5.2%
Cc1cccc(-c2c3c(=O)n(C)c(=O)n(C)c3cn2-c2ccccc2O)c1	19.4%
CCN(CC)c1cccc(O)c1	-20.6%
COC(=O)C1=C(C)NC(C)=C([N+](=O)[O-])[C@H]1c1ccccc1C(F)(F)F	4.9%&3.6%
CSc1ccc2c(c1)c(CCN)c(C)n2Cc1ccccc1Cl	14.7%[5.75 µM]
CCN=c1sc(C(=O)NCCc2ccccc2)cc(=O)n1CC	15.2%
Cc1nc2[nH]c(=O)c3c(n2n1)NC1=C(C(=O)CC(C)(C)C1)C3c1ccccc1 (stereo not drawn)	-19.2%
CCOC(=O)CC(=O)CSc1nnc2c(n1)[nH]c1ccccc12	-10.6%
Cc1nc(CNS(=O)(=O)c2cc(F)ccc2F)cs1	12.1%
COC(=O)NCC(c1cccnc1)N1CCN(c2ccccc2F)CC1 (stereo not drawn)	29.0%
CC1CCN(CC[C@H]2CCCN2S(=O)(=O)c2cccc(O)c2)CC1	7.4%
O=C(CSc1nnc(CNC(=O)c2c(F)cccc2Cl)o1)NCc1ccc2c(c1)OCO2	-19.3%
Cc1ccc(CC(=O)Nc2nncs2)cc1	-11.8%
O=C(CSCc1cnn(-c2ccccc2)c1-n1cccc1)NCC1CCCO1 (stereo not drawn)	63.3%

By substructure, the entries above with bromine
SMILES	AmpC inh no det
COC(=O)c1cc(Br)c(=O)n(CCC2=CCCCC2)c1	-3.9%
Cc1nn(C(=O)C(C)N2C(=O)c3ccccc3C2=O)c(C)c1Br (stereo not drawn)	1.3%
ClC(Cl)Br	-0.8%
COc1ccc(NC(=O)c2cncc(Br)c2)c(S(=O)(=O)N2CCOCC2)c1	15.0%

Individual results from the results shown.
AmpC inh no det with `Cc1nc(CNS(=O)(=O)c2cc(F)ccc2F)cs1` is entered as 12.1%
AmpC inh no det with `CC1CCN(CC[C@H]2CCCN2S(=O)(=O)c2cccc(O)c2)CC1` is entered as 7.4%
AmpC inh no det with `CCN(CC)c1cccc(O)c1` is entered as -20.6%

Continuation.
SMILES	AmpC inh no det
COc1ccccc1N1CCN(Cc2cc(Br)c(O)c3ncccc23)CC1	2.51µM*[single pt active]
CN(C)CCN=Cc1c(O)n(-c2cccc3ccccc23)c(=O)[nH]c1=O	-16.0%
O=C1c2[nH]nc(-c3ccccc3O)c2C(c2cccc(Cl)c2)N1CC1CCCO1 (stereo not drawn)	8.1%
O=C(NCc1ccccc1F)c1cccs1	-4.0%
CCc1nnc(NC(=O)CCC(=O)NCC2CCCO2)s1 (stereo not drawn)	-13.6%
COc1cccc(NC(=O)CSc2ccccn2)c1	-6.6%
CN(C)C(=O)Cn1c(SCC(=O)NC2CCCCC2)nc2ccccc21	21.5%
COc1ccc(C(=O)n2c(-c3ccco3)nc3ccccc32)cc1	65.1%
O=c1[nH]cnc2c1C1(CCCC1)Cc1ccccc1-2	23.1%
CCN1CCN(C(c2cc(OC)c(OC)c(OC)c2)c2nnnn2C(C)C)CC1 (stereo not drawn)	1.3%
COC1(OC)N=C(N)C2(C#N)C(c3ccc(C)cc3)C12C#N (stereo not drawn)	5.9%
COCCn1c(C)cc(C(=O)CSc2nnc(C)s2)c1C	4.7%
O=C(NCCCN1CCCCC1)c1ccc2c(c1)NC(=O)C(N1CCCCC1)S2 (stereo not drawn)	-1.3%
CCc1ccc(NC(=O)CSc2nc3cc(C(=O)OC)ccc3c(=O)n2Cc2ccco2)cc1	-21.2%
COc1ccc2[nH]cc(C(=O)CN3CCN(C/C=C/c4ccccc4)CC3)c2c1	39.2%
CC1=C(C(=O)OC(C)C)C(c2cccnc2)C2=C(CCCC2=O)N1 (stereo not drawn)	4.1%
COc1ccc(-n2c(=O)c(-c3cccs3)nc3cnc(Oc4ccccc4)nc32)cc1	-6.3%
CCCc1ccc(Oc2c(-c3ccc(O)c(C)c3O)n[nH]c2C)cc1	-6.4%
Cc1cccc(CNc2ncncc2-c2cccc(C#N)c2)c1	11.9%
COc1ccc(CC(=O)OCc2nnc(C3COc4ccccc4O3)o2)cc1OC (stereo not drawn)	79.1%
C=CCn1c(SCC(=O)N2CCN(C(=O)c3ccco3)CC2)nc2sc(CC)cc2c1=O	83.4%
Nc1nc(CN2CCN(Cc3ccc4c(c3)OCO4)CC2)nc(Nc2ccccc2)n1	26.8%
N#CN=C1CCCCCN1CC(N)=O	2.6%
O=S(=O)(NCCC1=CCCCC1)c1cccc(S(=O)(=O)N2CCOCC2)c1	23.7%
COc1ccc(CNC(=O)C2CSCCS2)cc1 (stereo not drawn)	4.0%
CC(C)CNC(=O)c1cc(-c2ccco2)on1	-11.4%
Cc1cc(C)cc(NS(=O)(=O)c2ccc3[nH]c(=O)[nH]c3c2)c1	-16.7%
CCOc1cc(C2NC(=O)N(C)C(C)=C2C(=O)OC)cc(Br)c1O (stereo not drawn)	6.7%
